# VDR inhibitor: blocks the human vitamin D receptor; Potency, µM, for the others: max response, negative = inhibition, hits mostly inhibitors; AID 504847; 400,000 compounds, 0.93% hits; VDR-SRC2-3 peptide fluorescence polarization, 2 h; active = well fitted inhibition curve with a large enough effect; inconclusive = small, poorly fitted or top-dose-only effect, or another doubt; inactive = no such curve, though single readings can be large or run the other way; note: series mostly up to about 120 µM
# Target sequence (P11473 whole entry, looked up): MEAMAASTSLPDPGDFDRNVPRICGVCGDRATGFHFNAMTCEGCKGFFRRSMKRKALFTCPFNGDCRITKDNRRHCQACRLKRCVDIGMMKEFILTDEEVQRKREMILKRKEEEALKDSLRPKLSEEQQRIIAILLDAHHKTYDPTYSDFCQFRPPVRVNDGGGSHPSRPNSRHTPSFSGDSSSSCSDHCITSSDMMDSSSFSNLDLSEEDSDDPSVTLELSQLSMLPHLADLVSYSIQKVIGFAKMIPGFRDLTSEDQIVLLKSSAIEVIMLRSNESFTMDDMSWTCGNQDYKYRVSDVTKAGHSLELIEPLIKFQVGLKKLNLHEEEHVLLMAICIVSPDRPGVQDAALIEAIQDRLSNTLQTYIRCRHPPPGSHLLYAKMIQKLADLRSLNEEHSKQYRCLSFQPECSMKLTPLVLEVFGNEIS
#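 Reagent solutions, kept cold and dark, are dispensed first; compounds are then pinned in at 23 nl, plates briefly spun, and incubated 2 h at ambient temperature. Inhibition of VDR–SRC2-3 peptide binding is read by fluorescence polarization.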
# The depositor's hits bear a star; ? = inconclusive; & = joins results of further samples. % is set by controls: 0 for no effect and ±100 for the full control effect; potency is the fitted concentration of half-maximal effect.
SMILES,VDR inhibitor
COc1cc(OC)cc(C(=O)Nc2cccc(C(C)=O)c2)c1,0%
Cc1ccc(S(=O)(=O)NCCC2=CCCCC2)cc1,-13%
CCN(C(=O)CCNC(=O)Cn1cnc2ccccc2c1=O)c1cc(OC)ccc1OC,-6%
O=C(NCc1cccs1)C1CCN(S(=O)(=O)c2cccc3cccnc23)CC1,-8%
O=C(Cn1cnc2c(nnn2Cc2ccc(Cl)cc2)c1=O)NC1CCCC1,4%
COCCCNC(=O)CSc1nc2cc(C(=O)NCCOC)ccc2c(=O)n1Cc1ccc2c(c1)OCO2,-7%
CCOC(=O)c1[nH]c(C)c(C(=O)NCc2ccco2)c1C,-19%
O=C(CCN1CCOCC1)NC12CC3CC(CC(C3)C1)C2,-9%
O=C1C2CCCN2C(=S)N1c1ccccc1 (stereo unspecified),-6%
CCOC(=O)C1=C(C)N(CCCCCC(=O)O)C(=O)NC1c1ccccc1OC(=O)c1cccs1 (stereo unspecified),-16%
Cn1c(-c2ccc(Br)o2)nc2ccccc21,4%&-24%
CCCC(=O)Nc1ccc2c(c1)c1ccccc1n2CC,-17%
COc1ccccc1C(=O)CN1C(=O)NC2(CCCc3ccccc32)C1=O (stereo unspecified),-3%
O=C(NC(=S)Nc1ccccc1)C1CCCCC1,2%
CC(NC(=O)c1ccc(N2Cc3ccccc3Oc3ncccc32)s1)c1ccccc1 (stereo unspecified),5%
COc1cccc(CNC(=O)Cn2nc(N3CCN(c4ccccc4OC)CC3)ccc2=O)c1,11%
COc1cccc(NC(=O)Nc2c(C)n(C)n(-c3ccccc3)c2=O)c1,-5%
COc1ccc(NC(=O)C2CCN(c3ccc(Sc4ccc(C)cc4)nn3)CC2)cc1,-7%
Cc1cccc(C)c1-n1nnnc1SCSc1nnnn1-c1c(C)cccc1C,21%
COc1ccc(N2C(=O)c3ccccc3NC2c2ccc(OC)c(COc3ccccn3)c2)cc1 (stereo unspecified),-2%&-19%
CC(CCCN(C)C)C(Cc1ccccc1)c1ccccc1 (stereo unspecified),3%
Cc1cccc(N2CCN(CC(O)COc3ccccc3)CC2)c1 (stereo unspecified),9%
CCNc1ncnc2c1nnn2C,-3%
CC(O)CNc1ccc(-c2nn(C)c(=O)c3ccccc23)cc1[N+](=O)[O-] (stereo unspecified),7%
CCOc1cc(C(=O)N2CCC3(CC2)NCCc2[nH]cnc23)cc(OCC)c1OCC,0%
CC(=O)NCc1ccc2[nH]c(C)cc2c1,-8%
Cc1ccc(S(=O)(=O)Oc2ccccc2/C=C2\SC(=O)NC2=O)cc1,-14%
COCCN(C(=O)c1csnn1)C(C(=O)NC1CCCC1)c1ccc(C)cc1 (stereo unspecified),23%
O=C(Nc1ccnn1C1CCN(Cc2ccc(O)c(Cl)c2)CC1)C1CCCC1,-8%
CC1CCN(S(=O)(=O)c2ccc3c(c2)CC(C)N3C(=O)C2CCC2)CC1 (stereo unspecified),?
CCCC(=O)C1=C(c2ccc(C)cc2)N(C(=O)CCC)n2cnnc2S1,-2%
CC(C)(C)C(=O)/C(=C/c1ccc(Cl)cc1)n1cncn1,?
O=C(Nc1sc2c(c1C(=O)O)CCCCC2)c1ccccc1,?
Cc1ccc(C(c2ccc(C)o2)c2cccc([N+](=O)[O-])c2O)o1,9%
CCSc1cc(N2CCCC2)nc(-c2ccccc2)n1,-22%
CC(c1ccco1)N(C(=O)c1ccc(C(F)(F)F)cc1)c1ccccn1 (stereo unspecified),10%
O=C(Nc1ccc(Oc2cccnc2)cc1)C1CCN(Cc2cc(Cl)ccc2O)CC1,11%
O=C(Nc1ccc2c(c1)S(=O)(=O)N=C1CCCCCN12)c1ccccc1Cl,3%
O=C(NCc1cccs1)c1ccccc1C(=O)NCc1cccs1,-14%
O=C(COC(=O)c1cc[n+]([O-])cc1)Nc1cccc(Br)c1,-16%
O=C(Cn1cc(C(F)(F)F)cc(Cl)c1=O)Nc1cc(S(=O)(=O)N2CCOCC2)ccc1Cl,-25%
COc1ccc(N2C(=O)CSC23C(=O)N(CC(N)=O)c2ccccc23)cc1 (stereo unspecified),18%
Cc1cc(C)cc(-n2cnc3cc(C(=O)O)ccc32)c1,-4%
Cc1cccc(-n2c(SCC(=O)c3c(N)n(C4CC4)c(=O)[nH]c3=O)nnc2N2CCOCC2)c1,-23%
O=C(NCCCN1CCCC1)[C@H](CSCc1ccccc1)N1Cc2ccccc2C1=O,-6%
CCN(CC)c1ccc(/C=N/NC(=S)NCc2ccc(OC)cc2)cc1,-9%
Cc1ccc(S(=O)(=O)N2CCOCC2)cc1C(=O)Nc1nc2ccccc2[nH]1,2%
O=C(Nc1ccc2ccccc2c1)c1cn(-c2ccccc2)nc1-c1cccs1,7%
COc1cc(C=O)ccc1OC(=O)N1CCOCC1,12%
Cc1[nH]c2ccccc2c1C(=O)CSc1nc2cc(S(=O)(=O)N3CCCCC3)ccc2o1,-8%
O=c1c2cc(-c3ccccc3)sc2ncn1/N=C/c1ccco1,-16%
CCOc1ccc(N(CC(=O)NC2CCCCC2C)S(=O)(=O)c2c(C)noc2C)cc1 (stereo unspecified),7%
COc1ccc(C(C(=O)NCC2CCCO2)N(Cc2cccs2)C(=O)c2snc(C(N)=O)c2N)cc1 (stereo unspecified),-3%
COc1cc(OC)cc(-c2c(-c3cccs3)c3cc(-c4cnc(N)nc4)ccc3n2C)c1,3%
O=S(=O)(c1cccc2nsnc12)N1CCCCC1,-10%
CCN(CC)S(=O)(=O)c1cc(Br)c(C)cc1OC,9%
CCOC(=O)c1c2ccccc2[n+]([O-])n1[C@@H](C)C(N)=O,?
COc1ccc2sc(N(Cc3cccnc3)C(=O)c3ccco3)nc2c1,2%
CCOc1ccc2nc(SCc3ccc(C(=O)OC)o3)[nH]c2c1,3%
COc1ccc(C(=O)NNC(=O)C(NC(=O)c2cc(OC)cc(OC)c2)C(C)C)cc1 (stereo unspecified),-27%

# (next part)
SMILES,VDR inhibitor
Fc1cnc(N2CCOCC2)nc1NCc1ccccc1,-12%
CCn1c(SCC(=O)Nc2cc(C)ccc2C)nnc1-c1cnccn1,-14%
O=C(NCc1cccc(Cl)c1)c1cc(=O)[nH]c2ccccc12,-5%
CC(C)C1Nc2ccc(C(=O)NC3CCCCC3)cc2NC1=O (stereo unspecified),-4%
Cc1ccc(S(=O)(=O)NCCC(=O)NCC(c2ccc(F)cc2)N2CCOCC2)cc1 (stereo unspecified),3%
O=C(Cn1nnc(-c2ccc(Cl)cc2)n1)N1CCN(C(=O)c2ccco2)CC1,-21%
O=C(Nc1cccc(F)c1)C1C2C=CC3(CN(CCCN4CCOCC4)C(=O)C13)O2 (stereo unspecified),-4%
Cc1oc(-c2ccc(Cl)cc2)nc1CS(=O)CC(=O)NC1CCCCCC1 (stereo unspecified),6%
CC[C@@]1(C(=O)OC)N[C@H](CN(C)C(=O)COc2ccccc2)[C@@H]2C(=O)N(C)C(=O)[C@@H]21,-4%
Cc1csc(=NC(=O)c2ccccc2)n1Cc1ccco1,1%
C=CCc1c(C)nc(-c2ccccc2)nc1N/N=C(\C)c1ccccc1,-1%
CCOC(=O)CSC1=Nc2ccccc2C2=NC(CCC(=O)NCc3ccccc3)C(=O)N12 (stereo unspecified),16%
FC(F)(F)c1ccncc1-c1nnc(C2CCCCC2)o1,14%
CCOC(=O)N1CCN(c2c(N3CCOCC3)c(=O)c2=O)CC1,10%
C=CCNC(=S)N/N=C/c1cn(-c2ccccc2)nc1-c1ccc(OC)cc1,4%
CCNC(=O)c1cccc(S(=O)(=O)N2CCCCCC2)c1,-12%
O=C(Cn1nnc(-c2ccc3c(c2)OCO3)n1)Nc1ccccc1C(=O)O,0%
O=C(NOCc1ccccc1)c1ccc([N+](=O)[O-])cc1,-7%
Cc1ccc(S(=O)(=O)NC2=NCN(Cc3ccccc3)CN2)cc1,-10%
O=C(CN1CCN(c2ccccc2O)CC1)Nc1cccnc1Cl,-14%
Cc1nn(Cc2cccc(C(=O)N3N=C(C(F)F)CC3(O)C(F)F)c2)c(C)c1[N+](=O)[O-] (stereo unspecified),-10%
COC(=O)c1sccc1NC(=O)c1cc2c(s1)CCCC2,-5%
Cc1cc(C)c(NC(=O)COC(=O)Cc2cccs2)c(C)c1,-9%
O=C(C[n+]1cccc2ccccc21)c1ccccc1,3%
C=CC(COCc1ccccc1)N(CC(=O)OC)S(=O)(=O)c1cc(Br)ccc1OC (stereo unspecified),-6%
O=C(Nc1ccc2nn(-c3ccc(F)cc3)nc2c1)c1cccnc1,-16%
COc1ccc2cc(/C=C/C(=O)N3CCN(CC(=O)N4CCCCCC4)CC3)ccc2c1,-2%
Cc1cc(C)cc(N(C(=O)c2sc(C)nc2C)C(C(=O)NC(C)(C)C)c2ccncc2)c1 (stereo unspecified),-10%
O=C(CCN1C(=O)C2C3CCC(C3)C2C1=O)Nc1ccccc1Cl (stereo unspecified),6%
O=C(O)CN(Cc1ccco1)S(=O)(=O)c1ccccc1,12%
CCOc1ccc(N(CC(=O)NCC2CCCO2)C(=O)CCC(=O)Nc2nccs2)cc1 (stereo unspecified),20%
O=c1cnnc(SCCc2ccccc2)[nH]1,?
Cc1nn(-c2ccccc2)c(C)c1NC(=O)COc1ccc2ccccc2c1,0%
COc1cccc(N=C2C(=O)N3CCCc4cccc2c43)c1,-18%
COC(=O)c1ccc(OCC(=O)Nc2ccsc2C(=O)OC)cc1,-1%
COC(=O)c1ccc(NC(=O)C(=O)N2CCN(C(=S)Nc3ccc(OC)cc3)CC2)cc1,-12%
Cc1cccn2c(=O)c(/C=C(\C#N)c3nc4ccccc4[nH]3)c(Oc3ccc(C(C)(C)C)cc3)nc12,7%
CCCNC(=O)N1CCN(c2nc(C(C)C)c3c(c2C#N)CC(C)(C)OC3)CC1,-3%
CC(C)c1ccc(N(CC(=O)NCCSC(C)(C)C)S(C)(=O)=O)cc1,18%
O=C(COC(=O)C1CC(=O)N(Cc2ccco2)C1)Nc1ccccc1[N+](=O)[O-] (stereo unspecified),2%
O=C(Nc1cc2c(cc1Br)OCCO2)c1ccco1,-3%
COc1ccccc1N(Cc1cc2cccc(C)c2[nH]c1=O)C(=O)C(C)C,14%
CCOC(=O)N1CCN(C2CC(=O)N(c3ccc(Cl)c(Cl)c3)C2=O)CC1 (stereo unspecified),2%
COc1ccc(NC(=O)Cn2c(=O)n(Cc3ccccc3Cl)c(=O)c3cc(OC)c(OC)cc32)cc1,-22%
CCOc1ccc(S(=O)(=O)N2CCCC(C(=O)N3CCCC3)C2)cc1 (stereo unspecified),-13%
COc1cccc(-c2nc(CS(=O)CC(=O)O)c(C)o2)c1 (stereo unspecified),8%
CCOC(=O)c1nnc2ccnn2c1N,-2%
Nc1cc(=O)[nH]c(SCC(=O)Nc2cc(Cl)ccc2Cl)n1,20%
CCOC(=O)COc1c(Cl)cc(C2NC(=S)NC(c3ccccc3)=C2C(C)=O)cc1OCC (stereo unspecified),0%
COc1cc(OC)cc(C(=O)N[C@H](C(=O)OCC(=O)NC(C)c2ccccc2)C(C)C)c1 (stereo partly specified),-2%
COc1cc(CC(=O)OCC(=O)Nc2cc(S(=O)(=O)N3CCCC3)ccc2Cl)cc(OC)c1OC,25%
NC(N)=NS(=O)(=O)c1ccc(NC(=S)NC(=O)/C=C/c2ccc(F)cc2)cc1,12%
C/C(=N\NC(=O)c1ccc(C)cc1)C1C(=O)c2ccccc2C1=O,8%
N#CCCn1cc(/C=C2\NC(=S)N(c3ccccc3)C2=O)c(-c2ccc(-c3ccccc3)cc2)n1,-7%
O=C(NCCc1ccccc1)c1ccc(NCC2CCCO2)c([N+](=O)[O-])c1 (stereo unspecified),9%
Cc1ccc(NC(=O)CN(C)C(=O)CSc2nnc(NC(C)C)s2)cc1,3%
O=C(O)C(Cc1ccc(O)cc1)N1C(=O)c2c(Cl)c(Cl)c(Cl)c(Cl)c2C1=O (stereo unspecified),2%
CCOC(=O)c1sc(NC(=O)OC)c(C(=O)OC)c1C,-10%
O=C(CSc1nc2c([nH]c3ccccc32)c(=O)n1-c1ccccc1)Nc1cccc(C(F)(F)F)c1,-1%

# Of the compounds above, 13 have an NH in an aromatic ring.
SMILES,VDR inhibitor
CCOC(=O)c1[nH]c(C)c(C(=O)NCc2ccco2)c1C,-19%
CCOc1cc(C(=O)N2CCC3(CC2)NCCc2[nH]cnc23)cc(OCC)c1OCC,0%
CC(=O)NCc1ccc2[nH]c(C)cc2c1,-8%
Cc1cccc(-n2c(SCC(=O)c3c(N)n(C4CC4)c(=O)[nH]c3=O)nnc2N2CCOCC2)c1,-23%
Cc1ccc(S(=O)(=O)N2CCOCC2)cc1C(=O)Nc1nc2ccccc2[nH]1,2%
Cc1[nH]c2ccccc2c1C(=O)CSc1nc2cc(S(=O)(=O)N3CCCCC3)ccc2o1,-8%
CCOc1ccc2nc(SCc3ccc(C(=O)OC)o3)[nH]c2c1,3%
O=C(NCc1cccc(Cl)c1)c1cc(=O)[nH]c2ccccc12,-5%
O=c1cnnc(SCCc2ccccc2)[nH]1,?
Cc1cccn2c(=O)c(/C=C(\C#N)c3nc4ccccc4[nH]3)c(Oc3ccc(C(C)(C)C)cc3)nc12,7%
COc1ccccc1N(Cc1cc2cccc(C)c2[nH]c1=O)C(=O)C(C)C,14%
Nc1cc(=O)[nH]c(SCC(=O)Nc2cc(Cl)ccc2Cl)n1,20%
O=C(CSc1nc2c([nH]c3ccccc32)c(=O)n1-c1ccccc1)Nc1cccc(C(F)(F)F)c1,-1%

# From PubChem BioAssay

# Some of the compounds tested (hit frequency here may not be typical).
